Screening data: PubChem, several laboratories
Env fusion inh = blocks HIV Env-driven cell-cell fusion; actives 1.1% (n = 360,000); inhibition, % at 12.3 µM; HeLa-JRFL Env/CEM21 cell fusion, luciferase;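 active = mean replicate inhibition score of at least 50 and every replicate individually at or above 50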;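 note: 0% = plate neutral controls and 100% = maraviroc near 300 nM; one replicate is shown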
Rce1 inh = inhibitors of yeast Ras-converting enzyme | AID 2563 | yeast membranes, quenched prenylated peptide cleavage fluorescence | calls only | actives 0.27% (n = 290,000) | Q03530;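 active = fall in fluorescence gain of 50% or more versus controls, with final raw signal at or below 3038400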;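 note: plate controls were neutral control wells for no effect and wells lacking membranes for full effect; tested at 10 µM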
Target sequence (Q03530 whole entry, looked up): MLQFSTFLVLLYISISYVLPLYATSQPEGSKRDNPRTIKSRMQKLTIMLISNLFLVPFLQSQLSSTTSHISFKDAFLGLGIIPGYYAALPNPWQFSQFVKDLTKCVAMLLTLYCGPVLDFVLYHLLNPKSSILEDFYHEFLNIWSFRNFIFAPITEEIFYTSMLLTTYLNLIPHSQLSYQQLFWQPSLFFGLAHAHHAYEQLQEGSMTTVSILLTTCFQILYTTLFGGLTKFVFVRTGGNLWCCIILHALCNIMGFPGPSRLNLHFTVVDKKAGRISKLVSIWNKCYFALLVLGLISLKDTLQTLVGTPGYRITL
Yeast UUG start = alters start codon recognition fidelity in yeast; S. cerevisiae UUG-firefly luciferase reporter, luminescence/redox ratio; activity score, % at 18.7 µM; actives 0.13% (n = 350,000); AID 602363;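 active = replicate mean at a twofold rise or more, about +100% in these data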;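 note: firefly luciferase made from a UUG start codon reports start codon fidelity; reporter light over untreated wells divided by growth signal over untreated wells; some hits fall short of that in this replicate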
eIF4H inh = inhibitors of RNA binding by human eIF4H; Q15056; eIF4H fluorescence polarization binding assay; inhibition, % at 35 µM; actives 0.94% (n = 290,000);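 active = 50% or more with normal probe brightness, or confirmed in later tests; about a fifth of its hits are not listed in these tables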;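 note: calls also rest on retests at 20 µM and on dose response follow-up; 0% = protein and probe with vehicle and 100% = probe without protein; strong numbers were not always called active; many hits fall short of the cut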
PABP FP inh = blocks human PABP binding to poly(A) RNA. actives 1% (n = 290,000). inhibition, % at 35 µM. fluorescence polarization;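 active = 50% or more with normal probe brightness, or confirmed in later tests; about a fifth of its hits are not listed in these tables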;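 note: calls also rest on retests at 20 µM and on dose response follow-up; controls were probe without protein and protein plus probe with vehicle; some compounds called inactive have numbers as strong as hits; many hits fall short of the cut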
Target sequence (P11940 whole entry, looked up): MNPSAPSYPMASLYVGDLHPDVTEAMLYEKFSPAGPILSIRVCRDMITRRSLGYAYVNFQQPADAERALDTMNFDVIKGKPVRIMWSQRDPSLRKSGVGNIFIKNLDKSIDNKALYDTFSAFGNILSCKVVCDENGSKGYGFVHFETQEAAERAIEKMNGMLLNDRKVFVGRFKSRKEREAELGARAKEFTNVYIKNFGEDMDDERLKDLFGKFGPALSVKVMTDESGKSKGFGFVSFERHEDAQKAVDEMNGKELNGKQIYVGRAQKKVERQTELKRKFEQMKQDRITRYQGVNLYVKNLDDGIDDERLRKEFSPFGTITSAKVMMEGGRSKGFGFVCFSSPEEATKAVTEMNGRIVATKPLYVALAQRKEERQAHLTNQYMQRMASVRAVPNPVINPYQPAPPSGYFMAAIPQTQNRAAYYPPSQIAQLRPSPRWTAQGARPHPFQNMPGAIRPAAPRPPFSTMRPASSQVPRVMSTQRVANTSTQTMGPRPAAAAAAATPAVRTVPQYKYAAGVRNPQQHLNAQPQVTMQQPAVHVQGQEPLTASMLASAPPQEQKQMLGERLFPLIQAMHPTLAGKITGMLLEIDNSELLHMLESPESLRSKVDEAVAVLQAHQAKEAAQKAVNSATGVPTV
CSC inhib = blocks cancer stem cells. cancer stem cell-like cells viability, luminescence. inhibition, % at 7.5 µM. actives 1.1% (n = 300,000);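 active = mean at 75% or more and at least half the replicates too; tested in HMLE shEcad cells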;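 note: 0% = median of negative and 100% = median of positive control wells; the first replicate is given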
MT1-MMP act inh = blocks activation of human MT1-MMP. P50281. HT1080 RFP-PRO-GFP cells, GFP/RFP ratio fluorescence, overnight; percent of plate control window, DMSO zero. GFP/RFP ratio change, % at 20 µM. actives 0.061% (n = 360,000);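 active = GFP/RFP ratio change of at least 30% with cell ATP level not reduced by more than half and red fluorescence within 50% of control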; note: strong numbers were not always called active
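Compound: 20 µM single dose, 1% DMSO / System: HT1080 RFP-PRO-GFP cells / Controls: DMSO and RFP-L50D-GFP cell wells / Read-out basis: GFP/RFP fluorescence ratio / Schedule: overnight compound exposure at 37 °C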
MT1-MMP act inh RFP = recorded beside MT1-MMP act inh, whose call it bears; RFP signal change, %; measured here: RFP expression control read;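 0 = vehicle wells; hits needed this value within 50% of zero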
* = called active by the depositor; i = inactive; nt = no result given. An excerpt (hit frequency here may not be typical).

SMILES	Env fusion inh	Rce1 inh	Yeast UUG start	eIF4H inh	PABP FP inh	CSC inhib	MT1-MMP act inh	MT1-MMP act inh RFP
CC(C)NC(=O)c1cc(C2CCCCN2C(=O)c2ccc(C(C)C)cc2)on1 (stereo unspecified)	9	nt	-8	nt	nt	nt	-2	-5
CC(c1ccccc1)C1CC(=O)N(c2ccccc2)C1=O (stereo unspecified)	-16	i	-13	6	8	-9	-2	1
O=C(Nc1c(C(=O)N2CCOCC2)cnn1-c1ccccc1)c1ccc([N+](=O)[O-])cc1	15	i	-9	-10	1	-1	-3	0
O=C(COC(=O)c1nc(Cl)ccc1Cl)c1ccccc1Cl	-7	i	-8	nt	nt	-3	-1	1
CCOc1ccc(S(=O)(=O)N(C)c2ccc(OCC(=O)OCc3c(C)noc3C)cc2)cc1	5	i	7	-8	-6	1	3	6
O=C(Nc1cccc(Cl)c1)c1ccc(NC2=NC3CS(=O)(=O)CC3S2)cc1 (stereo unspecified)	-9	i	-1	-5	8	nt	7	4
CC(=O)c1cccc(NC(=O)C(C)OC(=O)C2CCC2)c1 (stereo unspecified)	3	i	-1	-5	-2	9	-4	-1
O=C(Nc1ccccc1Cl)N1C2CCC1CC(O)(c1cccnc1)C2 (stereo unspecified)	-7	i	nt	-2	-5	-3	-1	2
CC(C)CN(C(=O)COC(=O)CCSc1ccc(F)cc1)c1c(N)n(Cc2ccccc2)c(=O)[nH]c1=O	1	i	-17	nt	nt	0	-1	-2
CCCCOC(=O)CSC1=C(C#N)C(c2ccc3c(c2)OCO3)CC(=O)N1 (stereo unspecified)	nt	i	-10	-11	34	22	1	-2
Cc1cc2ccccc2c(=O)n1CC(=O)NCC(=O)N(C)Cc1ccccc1	-10	i	-11	-7	-3	-3	5	-2
COc1ccccc1OCCNC(=O)c1cc(SC)ccc1Cl	7	i	nt	-3	4	1	-2	-1
Clc1ccc2c(c1)CNc1c(ncnc1N1CCOCC1)O2	nt	i	2	2	1	-17	3	-2
COc1ccc(-n2nc(C(=O)O)cc2-c2ccccc2)cc1	-3	i	1	-5	-3	-2	-4	1
CCN(CC)c1ccc(NC(=O)C2CCCN(S(=O)(=O)c3cccnc3)C2)c(C)c1 (stereo unspecified)	18	i	-11	-2	-2	-8	12	-4
N#C/C(=C/c1cn(CC(=O)O)c2ccccc12)C(=O)NCc1ccccc1	-2	i	nt	-3	2	16	-4	5
O=c1[nH]c(=O)c2cn[nH]c2[nH]1	-23	nt	-4	nt	nt	-10	0	-1
CCCCn1c(N)c(N(CCOC)C(=O)c2cc3c(s2)CCC3)c(=O)[nH]c1=O	2	i	-9	nt	nt	-2	-3	2
O=C(O)c1ccc(NC(=O)c2cccc(C(=O)Nc3ccc(C(=O)O)cc3)n2)cc1	-7	i	5	7	9	4	2	1
O=C1C2CC=CCC2C(=O)N1Cc1ccccc1Cl (stereo unspecified)	16	i	-8	-3	10	-17	4	8
CC(=O)Nc1nc2n(n1)C(c1ccc(Cl)cc1)C=C(C)N2 (stereo unspecified)	nt	i	nt	-6	34	-15	1	2
Cc1ccc(CCNC(=O)c2cc(C)nn2-c2ccccc2)cc1	14	i	-19	-5	8	0	9	-1
CC(=O)Nc1c(C)cc(S(C)(=O)=O)cc1C	11	i	4	-3	-6	-5	3	4
CCOc1ccccc1-c1cc(-c2ccc(OC)cc2)nc2c1c(=O)n(C)c(=O)n2C	nt	i	-9	8	-1	7	0	1
CCCc1cc(=O)[nH]c(NCc2ccc(Cl)cc2)n1	-72	i	-12	-2	0	-6	1	5
CC(=O)Nc1ccc(NC(=O)C/C(C)=N/NC(N)=S)cc1	-19	i	nt	-3	0	-6	0	-1
O=C(CN1CCN(c2ccc(O)cc2)CC1)Nc1ccc(S(=O)(=O)N2CCCC2)cc1	-40	nt	0	nt	nt	-2	2	3
O=C(NN1CCOCC1)c1cc(-c2cccs2)nc2ccccc12	24	i	-14	-11	1	5	2	-5
CCOc1ccc(OCc2ccc(C(=O)OCc3ccccn3)o2)cc1	-81	i	-16	6	7	11	4	-5
Cc1ccc(CNC(=O)c2cccnc2Sc2cccc(Cl)c2)cc1	28	i	3	-6	-2	5	3	-5
COC(=O)c1nc(NC(=O)c2ccccc2)n[nH]1	-7	i	-13	-2	-7	-13	3	5
Cc1ccccc1Sc1ccc([N+](=O)[O-])cn1	-33	i	nt	nt	nt	-3	-1	0
CC(C)c1ccc(/C=C/C(=O)Nc2nc3ccc([N+](=O)[O-])cc3s2)cc1	-45	i	-9	0	-2	36	-1	-9
CCOC(=O)c1c(C)c(C(=O)NCc2ccccn2)c(C)n1C	-35	i	-15	1	0	nt	-5	-1
CCOC(=O)C(NC(=O)CC)(Nc1sc(C)c(CC)c1C#N)C(F)(F)F (stereo unspecified)	nt	i	nt	1	6	0	-2	-3
CC(C)(C)OC(=O)N[C@@H](C(=O)OC(C)(C)C)c1ccc2c(c1)OCO2	-33	nt	-1	nt	nt	-12	-2	-2
Cc1ccc(C(C)C)c(OCC(=O)NN=C2CCCC(=O)C2)c1	17	nt	-6	nt	nt	8	0	4
Cc1ccc(CNC(=O)C2CCCN(S(=O)(=O)c3cccnc3)C2)cc1 (stereo unspecified)	nt	i	-4	5	-1	-8	0	-5
CC(Sc1ccc(S(=O)(=O)N2CCCCCC2)cn1)C(N)=O (stereo unspecified)	-6	nt	-9	nt	nt	nt	-1	-3
COc1ccccc1N1CCN(S(=O)(=O)c2ccc3c(c2)n(C)c(=O)n3C)CC1	0	i	nt	8	-6	nt	1	-2

Quoted from the listing.
Reading of CC(=O)Nc1nc2n(n1)C(c1ccc(Cl)cc1)C=C(C)N2 (stereo unspecified) under MT1-MMP act inh: 1
Reading of O=C(CN1CCN(c2ccc(O)cc2)CC1)Nc1ccc(S(=O)(=O)N2CCCC2)cc1 under CSC inhib: -2
Reading of CCOc1ccccc1-c1cc(-c2ccc(OC)cc2)nc2c1c(=O)n(C)c(=O)n2C under PABP FP inh: -1

An excerpt from above, showing only MT1-MMP act inh RFP:
structure | MT1-MMP act inh RFP
Clc1ccc2c(c1)CNc1c(ncnc1N1CCOCC1)O2 | -2
CC(C)c1ccc(/C=C/C(=O)Nc2nc3ccc([N+](=O)[O-])cc3s2)cc1 | -9
COc1ccccc1N1CCN(S(=O)(=O)c2ccc3c(c2)n(C)c(=O)n3C)CC1 | -2
CC(C)CN(C(=O)COC(=O)CCSc1ccc(F)cc1)c1c(N)n(Cc2ccccc2)c(=O)[nH]c1=O | -2
CC(C)NC(=O)c1cc(C2CCCCN2C(=O)c2ccc(C(C)C)cc2)on1 (stereo unspecified) | -5
CCOc1ccccc1-c1cc(-c2ccc(OC)cc2)nc2c1c(=O)n(C)c(=O)n2C | 1

Further records:
SMILES	Env fusion inh	Rce1 inh	Yeast UUG start	eIF4H inh	PABP FP inh	CSC inhib	MT1-MMP act inh	MT1-MMP act inh RFP
CCN(C(=O)Cn1cnc2c(nc3n2CCCCC3)c1=O)c1cccc(Cl)c1	-6	i	-11	nt	nt	15	-1	-2
O=C(c1ccco1)N1CCN(S(=O)(=O)c2ccc(Br)s2)CC1	-30	i	-21	-6	7	-9	-6	1
CCCCN(CCCC)c1cc(C)nc(-c2ccccc2O)n1	nt	i	-1	0	-5	18	-5	-4
COCCNCCOCCOc1cccc(OC)c1	nt	i	-18	-4	-8	nt	7	-1
O=C(CCNS(=O)(=O)c1cccs1)Nc1ccccc1F	2	i	-6	-2	13	12	2	11
Cc1ccc(-n2nc3c(=O)n(CCCC(=O)N4CCCCC4)nc(C)c3c2C)cc1	21	i	2	-8	1	-13	7	5
Cn1cnnc1SCC(=O)NC1CCCCC1	15	i	-43	-14	-20	4	0	0
CC1(C)O[C@@H]2C[C@H]3[C@@H]4CCC5=CC(=O)C=C[C@]5(C)[C@@]4(F)[C@@H](O)C[C@]3(C)[C@]2(C(=O)CO)O1	i	i	-25	5	6	-1	-2	2
CSCCC(NS(=O)(=O)c1ccccc1F)C(=O)N1CCCCCCC1 (stereo unspecified)	20	i	-14	-4	10	nt	-5	0
CC(C)(O)C#Cc1ccc(C(=O)NC2CCCCC2)s1	-11	i	nt	1	-3	-3	6	5
Cc1cc(=O)[nH]c(COc2ccccc2)n1	nt	i	-18	-3	-1	-12	-2	0
COc1ccc(S(=O)(=O)NNC(=O)C2COc3ccccc3O2)cc1[N+](=O)[O-] (stereo unspecified)	2	nt	nt	nt	nt	0	0	2
Cc1nnc(SC/C=C/c2ccccc2)n(N)c1=O	11	i	nt	-7	3	3	0	2
COc1cc(C)nc(N(Cc2ccccc2)S(=O)(=O)c2ccc(C)cc2)n1	4	i	nt	-4	-3	21	-5	-14
CC(C)C(=O)Nc1ccc2c(c1)nc(CCN1CCCCC1)n2C	-10	i	-9	0	16	8	2	3
CCOC(=O)N1CCN(CC(=O)Nc2sc(CC)cc2C(=O)c2ccc(OC)cc2)CC1	15	i	-14	-11	-6	17	-10	-15
c1ccc(Cn2nnc3c(N4CCc5ccccc54)ncnc32)cc1	-127	i	-16	0	-4	-10	4	-2
O=C(NCCCn1ccnc1)c1cc2c(ccc3ccccc32)o1	5	nt	nt	-1	-13	20	nt	nt
CCC(C)(C)NC(=O)C(c1cccnc1)N(C(=O)c1csnn1)c1ccccc1 (stereo unspecified)	25	i	nt	0	-6	1	-4	-2
O=C(NC(=S)Nc1ccc(N2CCOCC2)c(Cl)c1)c1cncc(Br)c1	-47	i	nt	-8	2	-1	-1	-6
N#Cc1cn(CCOc2ccccc2F)c2ccccc12	-92	nt	-13	-11	2	8	-5	-5
Cc1ccc(NC(=O)c2cc(Cl)nc3ccccc23)cc1	-364	i	-1	4	0	35	0	0
COc1ccc(N2CCN(C3CCCN(S(=O)(=O)c4ccc(C)cc4C)C3)CC2)cc1 (stereo unspecified)	32	i	23	1	7	8	0	-20
COc1ccc(Br)cc1S(=O)(=O)N(CC(=O)N1CCN(C)CC1)c1ccccc1	-9	i	-11	3	-2	9	-3	1
